Compound activity (PubChem BioAssay)
EPAC2 antag = validation of human EPAC2 antagonists; Potency, µM (series often up to 112 µM), without a hit: at the top dose activity, negative = inhibition, most hits filed as inhibitors; Q8WZA2; EPAC2 Rap1B BODIPY-GDP exchange, fluorescence; AID 1645886; actives 1.7% (n = 16,000); active means well fitted inhibition curve with a large enough effect; inconclusive means small, poorly fitted or top-dose-only effect; inactive means no such curve, though single readings can be large or run the other way;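 further: 100% = activation by cAMP agonist control; nearly all actives have a fitted effect of over 40% in size; the record reuses the description of the EPAC1 agonist screen; inactives centre near -10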
Target sequence (Q8WZA2 whole entry, looked up): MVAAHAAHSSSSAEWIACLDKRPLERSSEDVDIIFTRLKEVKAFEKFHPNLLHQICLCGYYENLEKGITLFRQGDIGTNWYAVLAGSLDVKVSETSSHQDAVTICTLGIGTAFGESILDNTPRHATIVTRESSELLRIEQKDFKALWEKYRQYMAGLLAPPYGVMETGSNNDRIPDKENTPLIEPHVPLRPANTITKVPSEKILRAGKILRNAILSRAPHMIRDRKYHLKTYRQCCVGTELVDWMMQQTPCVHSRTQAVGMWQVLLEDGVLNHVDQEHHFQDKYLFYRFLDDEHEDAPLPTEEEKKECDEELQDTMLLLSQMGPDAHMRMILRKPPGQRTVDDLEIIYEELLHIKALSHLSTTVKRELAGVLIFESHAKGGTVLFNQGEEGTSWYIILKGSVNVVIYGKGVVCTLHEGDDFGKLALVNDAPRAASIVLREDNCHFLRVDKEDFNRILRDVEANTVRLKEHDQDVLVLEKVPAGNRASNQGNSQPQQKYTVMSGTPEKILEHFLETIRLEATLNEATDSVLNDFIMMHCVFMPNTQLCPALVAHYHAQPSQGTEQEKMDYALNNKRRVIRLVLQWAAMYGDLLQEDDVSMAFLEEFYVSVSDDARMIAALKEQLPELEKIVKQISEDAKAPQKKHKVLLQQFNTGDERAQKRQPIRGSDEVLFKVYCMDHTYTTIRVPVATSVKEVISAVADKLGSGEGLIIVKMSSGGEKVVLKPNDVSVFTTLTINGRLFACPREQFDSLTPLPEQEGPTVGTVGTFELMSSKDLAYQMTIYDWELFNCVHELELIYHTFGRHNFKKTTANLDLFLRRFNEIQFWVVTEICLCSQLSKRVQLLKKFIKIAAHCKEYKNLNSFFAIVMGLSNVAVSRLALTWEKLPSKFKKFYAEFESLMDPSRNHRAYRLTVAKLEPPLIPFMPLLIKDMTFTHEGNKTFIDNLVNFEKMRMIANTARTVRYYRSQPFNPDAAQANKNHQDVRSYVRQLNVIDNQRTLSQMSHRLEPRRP
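Normalized against a 6.5 mM cAMP agonist control, compounds were tested on 100 nM EPAC2 exchanging Rap1B-bound BODIPY-GDP (250 nM) for 50 uM GDP. Fluorescence drop (ex 480, em 540 nm) was tracked at room temperature over 30 min at 5-min intervals.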
Active calls of the source: *; ? = inconclusive; & = joins results of further samples; [ ] = another dose, or the depositor's remark. Potency means the concentration at half of the fitted maximal effect. A portion of the library (hit frequency here may not be typical).

SMILES | EPAC2 antag
CC(=O)O[C@@H]1C[C@@]2(C)C(c3ccoc3)C[C@H]3O[C@]32[C@]2(C)C(=O)C(O)=C3C(C)(C)C(=O)C=C[C@]3(C)C12 (stereo partly specified) | -5%
CN(C(=O)Cc1ccc(Cl)c(Cl)c1)[C@H](CN1CCCC1)c1ccccc1 | -19%&-26%
CCCN(CCC)C(=O)Cc1c(-c2ccc(Cl)cc2)nc2ccc(Cl)cn12 | 2%
CC(C)=CCCC1(C)C=Cc2c(O)c3c(c(CC=C(C)C)c2O1)OC12C(=CC4CC1C(C)(C)OC2(C/C=C(/C)C(=O)O)C4=O)C3=O (stereo unspecified) | -20%
COC(=O)/C(C)=C\CC12OC(C)(C)C3CC(C=C4C(=O)c5c(OC)c6c(c(CC=C(C)C)c5OC431)OC(C)(CCC=C(C)C)C=C6)C2=O (stereo unspecified) | -23%
CC(n1cc(C[C@H](N)C(=O)O)c2ccccc21)n1cc(C[C@H](N)C(=O)O)c2ccccc21 | -2%
CN(CCc1ccc(Cl)c(Cl)c1)[C@H]1CCCC[C@H]1N1CCCC1 | -30%
COc1ccc2c(c1O)-c1c(OC)c(OC)cc3c1[C@H](C2)N(C)CC3 | -21%
C=CCN1CC[C@]23CCCCC2[C@H]1Cc1ccc(O)cc13 (stereo partly specified) | 10%
COc1ccc2c(c1OC)C(=O)O[C@H]2[C@@H]1c2cc3c(cc2CCN1C)OCO3 | ?
CN(C)CCc1ccc(O)cc1 | 9%&-13%
C[C@]12Cc3cn4c(nc3C=C1CCC1C2CC[C@@]2(C)[C@H]1CC[C@@]2(O)C#N)nc1ccccc14 (stereo partly specified) | -10%
N[C@]1(C(=O)O)CC[C@@H](C(=O)O)C1 (racemic) | -3%&7%
CCCCC[C@@H](/C=C/C=C\CCCCCCCC(=O)O)OO | ?
[S]=[Sb](=[S])[S][Sb](=[S])=[S] | 23%
CCOP(=S)(OCC)SCn1c(=O)oc2cc(Cl)ccc21 | 32µM*
NCCc1cc(O)c(O)cc1O | -10%
c1cncc(C2CCCCN2)c1 (stereo unspecified) | 1%&-6%
CCOC(=O)CC(SP(=S)(OC)OC)C(=O)OCC (stereo unspecified) | 9%[239 µM]
CN[C@]1(c2ccccc2Cl)CCCCC1=O | -7%
Cn1cnc(CCN)c1 | -2%
CCCCNCC(O)c1ccc(O)cc1 (stereo unspecified) | -1%
c1ccc(N2CCCC3(CCNCC3)C2)nc1 | -1%
Clc1ccc([C@@H]2C[C@H]3CC[C@@H]2N3)cn1 | 3%[239 µM]
O=S(=O)(O)c1cc(O)ccc1O | 3%[56.6 µM]
C=CCN1CCC2(C)c3cc(O)ccc3CC1[C@@H]2C (stereo partly specified) | 15%
N[C@@H](CCl)C(=O)O | 9%
C[N+]1(C)C2CCC1CC(OC(=O)C(CO)c1ccccc1)C2 (stereo unspecified) | 8%&1%
C=C(C)[C@H]1C2C(=O)O[C@H]1[C@H]1OC(=O)[C@@]34O[C@@H]3C[C@]2(O)[C@@]14C | -2%&-30%
Cc1o[nH]c(=O)c1C[C@H](N)C(=O)O | ?
CCN(CC)CCOC(=O)C(O)(c1ccccc1)c1ccccc1 | -10%
NC(Cc1ccc(N(CCCl)CCCl)cc1)C(=O)O (stereo unspecified) | -9%&-11%
CCOP(=O)(NC(C)C)Oc1ccc(SC)c(C)c1 (stereo unspecified) | 50µM*
CC[C@@]1(O)C(=O)OCc2c1cc1n(c2=O)Cc2cc3ccccc3nc2-1 | ?
CN1C(=O)NC(=O)C(C)(C2=CCCCC2)C1=O (stereo unspecified) | 40%&-3%[activator]
CC(C)Nc1ccc(Nc2ccccc2)cc1 | -8%
CCOC(=O)[C@]12Cc3cc(Cl)ccc3[C@H]1N(Cc1ccccc1)C(=O)c1ccccc12 | ?
O=S1(=O)N(CCN2CC=C(c3c[nH]c4cc(F)ccc34)CC2)c2cccc3c2N1CCC3 | -5%
CC1CC[C@@]2(NC1)O[C@@H]1C[C@H]3C4CC=C5C[C@@H](O)CC[C@]5(C)C4CC[C@]3(C)[C@H]1[C@@H]2C (stereo partly specified) | -19%
CCC(=O)O[C@H]1CC[C@H]2[C@@H]3CCC4=CC(=O)CC[C@]4(C)[C@H]3CC[C@]12C | -10%[56.6 µM]
CC(N)Cc1c[nH]c2ccc(O)cc12 (stereo unspecified) | -10%&0%
O=P1(NCCCl)OCCCN1CCCl (stereo unspecified) | -3%[56.6 µM]
c1ccc2c(N3CCNCC3)cccc2c1 | ?
O=P1(N(CCCl)CCCl)NC(OO)CCO1 (stereo unspecified) | 6%
C[C@]12CC[C@H](O)CC1=CC[C@@H]1[C@@H]2CC[C@]2(C)C(=O)CC[C@@H]12 | 2%
CC1CC2CC(=O)C3CCCN4CCCC2[C@]34C1 (stereo partly specified) | 0%
CCCCCCCCCCCCCC(=O)OC1C(C)[C@@]2(O)C(C=C(CO)C[C@]3(O)C(=O)C(C)=C[C@H]23)[C@@H]2C(C)(C)[C@]12OC(C)=O (stereo partly specified) | ?
O=C(O)C1=CCCN(CCOC(c2ccc(C(F)(F)F)cc2)c2ccc(C(F)(F)F)cc2)C1 | ?
O=c1[nH]c2ccccc2n1C1CCN(CCCC(c2ccc(F)cc2)c2ccc(F)cc2)CC1 | ?
O=C(O)[C@@H]1C[C@H]2C[C@@H](CP(=O)(O)O)CC[C@H]2CN1 | -3%
CCCN(CCC)CCc1ccc(O)c(O)c1 | -15%&-6%
C1CN(P2(N3CC3)=NP(N3CC3)(N3CC3)=NP(N3CC3)(N3CC3)=N2)CCO1 (stereo unspecified) | 10%
O=C1Nc2ccc(Cl)cc2C(c2ccccc2)=NC1O (stereo unspecified) | ?
CC(=O)C1CC[C@H]2C3CC[C@@H]4CC(O)CC[C@@]4(C)C3CC[C@]12C (stereo partly specified) | -21%
CN(CCC(N)CC(=O)NC1C=CC(n2ccc(N)nc2=O)OC1C(=O)O)C(=N)N (stereo unspecified) | -11%
CCCCOC(=O)c1ccccc1C(=O)OCc1ccccc1 | ?
CC(=O)OC[C@]12C[C@H](OC(=O)CC(C)C)C(C)=C[C@H]1O[C@H]1[C@H](O)[C@@H](OC(C)=O)[C@@]2(C)[C@]12CO2 | -26%
CN1[C@@H]2CC[C@H]1CC(OC(=O)c1cc(Cl)cc(Cl)c1)C2 (stereo partly specified) | -8%&-20%
CO[C@H]1CC=C2CCN3CCC4=C(CC(=O)OC4)[C@]23C1 | -5%&-22%
NCC(=O)c1ccc(Br)cc1 | -2%

No new results follow: an excerpt of the list.
SMILES | EPAC2 antag
O=c1[nH]c2ccccc2n1C1CCN(CCCC(c2ccc(F)cc2)c2ccc(F)cc2)CC1 | ?
O=C(O)[C@@H]1C[C@H]2C[C@@H](CP(=O)(O)O)CC[C@H]2CN1 | -3%
CCCN(CCC)CCc1ccc(O)c(O)c1 | -15%&-6%

(listing goes on)
SMILES | EPAC2 antag
CC(Cc1ccc(OCC(=O)O)cc1)NCC(O)c1cccc(Cl)c1 (stereo unspecified) | 0%&-12%
O=C(O)[C@@H]1CCN1 | -11%
Clc1ccc(C(Cn2ccnc2)OCc2csc3c(Cl)cccc23)c(Cl)c1 (stereo unspecified) | -10%[56.6 µM]
COc1cc2c(c(OC)c1OC)-c1ccc(O)c(=O)cc1[C@@H](NC(C)=O)CC2 | -7%
Cn1c(CCCC(=O)O)nc2cc(N(CCCl)CCCl)ccc21 | 13%
O=C1/C(=C/c2ccc(N(CCCl)CCCl)cc2)Cc2ccccc21 | -24%
CN1CCC(O)(c2ccc(F)cc2)C(C(=O)c2ccc(F)cc2)C1 (stereo unspecified) | 29%
CN1Cc2ccccc2[C@@H]2c3cccc4[nH]cc(c34)C[C@H]21 | ?
CCN1C[C@]2(COC)[C@H](O)C[C@H](OC)[C@]34C1C([C@H](OC)[C@H]23)[C@]1(OC(C)=O)C2[C@@H](OC(=O)c3ccccc3)C(O)(C[C@H]24)[C@@H](OC)[C@@H]1O | -13%
COc1cc([C@@H]2c3cc4c(cc3[C@@H](O)[C@H]3COC(=O)[C@H]23)OCO4)cc(OC)c1O | -2%
COc1ccc2c3c1O[C@H]1C(=O)CC[C@H]4[C@@H](C2)N(C)CC[C@]314 | -1%
CC(C)CN1CCC2(CC1)CCN(C(=O)Oc1ccccc1)CC2 | -10%
CS(=O)(=O)c1ccc(C(=O)C2C(=O)CCCC2=O)c([N+](=O)[O-])c1 | 24%[239 µM]
O=c1cccc2n1CC1CC2CN2CCCC[C@H]12 (stereo partly specified) | -6%
CC(=O)OC1CC2C(C)(C)C(=O)C=C[C@]2(C)C2CC[C@]3(C)C(=CC(=O)OC3c3ccoc3)[C@]12C (stereo partly specified) | -7%
NCC(CC(=O)O)c1ccc(Cl)s1 (stereo unspecified) | -3%
CC1CCCC(=O)CCC/C=C/c2cc(O)cc(O)c2C(=O)O1 (stereo unspecified) | -11%
CNC(=O)N(C)c1nnc(C(C)(C)C)s1 | ?
c1cc(CN2CCCC3(CCNCC3)C2)ccn1 | -10%
NCC(O)c1cc(O)c(O)cc1F (stereo unspecified) | -18%
CC[C@]1(O)C(=O)OCc2c1cc1n(c2=O)Cc2cc3ccccc3nc2-1 | -13%
Oc1ccc(-c2cccnc2)cc1CNC1CN2CCC1CC2 (stereo unspecified) | -3%
CN(C)C1C(=O)C(C(N)=O)=C(O)[C@@]2(O)C(=O)C3=C(O)c4c(O)cccc4[C@@](C)(O)C3[C@H](O)C12 (stereo partly specified) | 15%
Clc1ccc(C(OCCN2CCCCC2)c2ccccc2)cc1 (stereo unspecified) | -11%
C1CCC(NC2CCCCC2)CC1 | -14%
CO[C@@H]1C[C@@H](C[C@H]2CC[C@H](C)[C@@H]([C@@H](C)C(=O)O)O2)O[C@]2(O[C@](C)([C@H]3CC[C@@](C)(C4OC([C@H]5O[C@@](O)(CO)[C@H](C)C[C@@H]5C)C[C@@H]4C)O3)C[C@H]2C)[C@@H]1C (stereo partly specified) | -7%
CC1(C)C(O)CC(O)[C@]2(C)C1CC(O)[C@]1(C)C2CC[C@@]2(C)C(c3ccoc3)CC3OC312 (stereo partly specified) | -26%
O=C(N[C@H]1N=C(c2ccccc2F)c2cccc3c2N(CC3)C1=O)c1cc2ccccc2[nH]1 | 10%
O[C@H]1CCCC[C@H]1N1CCC(c2ccccc2)CC1 | -23%
c1csc(CN2CCCC3(CCNCC3)C2)n1 | -15%
COc1ccc2c(CCN)c[nH]c2c1 | 1%
CC(C)C[C@H](NC(=O)[C@H](Cc1ccccc1)NC(=O)CNC(=O)[C@H](C)NC(=O)[C@@H](N)Cc1ccc(O)cc1)C(=O)O | 3%[11.4 µM]
COC(=O)N1CCC2(CCCN(C)C2)CC1 | -31%
O=C(Oc1ccccc1)N1CCC[C@@]2(CCN(C(c3ccccc3)c3ccccc3)C2)C1 | -27%
CN1C(=O)CN=C(c2ccccc2)c2cc(Cl)ccc21 | 0%
C=CCN1CC[C@]23c4c5ccc(O)c4O[C@H]2C(=O)CC[C@@]3(O)[C@H]1C5 | -11%&-20%
c1cc2ccc3cccc4ccc(c1)c2c34 | -32%[239 µM]
NNc1ccccc1 | 1%
COc1ccc2[nH]cc(C3=CCNCC3)c2c1 | 54%&19%[activator]
Oc1c(Cl)c(Cl)c(Cl)c(Cl)c1Cl | 14µM*
Cc1nnc2n1-c1ccc(Cl)cc1C(c1ccccc1Cl)=NC2 | -9%
C[C@@H]1[C@@H]2Cc3ccc(O)cc3[C@@]1(C)CCN2CC1CC1 | 18%
CC(=O)OC1C(=O)[C@]2(C)C(O)CC3OC[C@]3(OC(C)=O)C2[C@@H](OC(=O)c2ccccc2)[C@]2(O)CC(O)C(C)=C1C2(C)C (stereo partly specified) | -1%
C[C@@H]1[C@@H]2Cc3ccc(O)cc3[C@@]1(C)CCN2CCc1ccccc1 | 12%[239 µM]
N#C/C(=C\c1ccc(O)c(O)c1)C(N)=S | ?
CC(=O)C1CCC2C3CCC4CC(O)CCC4(C)C3CC(O)C12C (stereo unspecified) | -11%
O=[N+]([O-])c1c(Cl)c(Cl)cc(Cl)c1Cl | -21%[239 µM]
CCCCC/C=C\C/C=C\C/C=C\CCCCCCC(=O)NCCO | -12%[11.4 µM]
C=CCN1CCC23c4c5ccc(O)c4O[C@H]2C(=O)CC[C@@]3(O)C1C5 (stereo partly specified) | 11%
CN[C@@H](C)Cc1ccccc1 | 7%[239 µM]
CN1CCN=C(c2ccccc2)c2cc(Cl)ccc21 | -22%
CNCCc1cnc[nH]1 | 6%&-9%
CCCCCCC(=O)CCCCCC/C=C/C[C@@H](O)[C@H](O)[C@@](N)(CO)C(=O)O | 17%&4%
c1ccc(N2CCCC3(CCNCC3)C2)cc1 | -17%
COc1ccc(CNC(=O)/C=C/c2ccc3[nH]cc(CCN(C)C)c3c2)cc1 | -6%
C=C1C[C@@H]2[C@H](CC[C@]3(C)C(=O)CC[C@@H]23)[C@@]2(C)C=CC(=O)C=C12 | ?
NC(=O)CI | 4%
COc1ccc2[nH]cc(CCNCc3ccc(Br)cc3)c2c1 | -18%
NC(=NCc1ccc(Cl)cc1)SCCCc1cnc[nH]1 | -22%
CN1CCCC2(CCN(C(=O)c3csnn3)CC2)C1 | -13%
COP(=S)(OC)Oc1ccc(S(=O)(=O)N(C)C)cc1 | -9%
Clc1ccc(N2CC3CCC(C2)N3)nn1 | -12%
c1ccc2c(c1)sc1ccccc12 | -18%

Pulled by compound from the entries so far:
SMILES | EPAC2 antag
CN1CCN=C(c2ccccc2)c2cc(Cl)ccc21 | -22%
c1ccc(N2CCCC3(CCNCC3)C2)cc1 | -17%
CNCCc1cnc[nH]1 | 6%&-9%
NC(=O)CI | 4%
C=C1C[C@@H]2[C@H](CC[C@]3(C)C(=O)CC[C@@H]23)[C@@]2(C)C=CC(=O)C=C12 | ?
COP(=S)(OC)Oc1ccc(S(=O)(=O)N(C)C)cc1 | -9%
